# Compound activity as filed in PubChem BioAssay.
# gsp antag: antagonizes gsp, the McCune-Albright syndrome mutation | gsp-mutant cells, cAMP HTRF, 30 min; control for the full effect not named in the record | Potency, µM (titrated, usually from 76.9 µM), without a hit: top-dose activity change, negative = inhibition, hits mostly inhibitors | actives 0.4% (n = 340,000); active = falling curve of any shape with a large fitted effect; inconclusive = falling curve, mostly with a smaller effect; inactive = flat or rising curve; cell line not stated here;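 note: intracellular cAMP measured with PDE inhibitor Ro 20-1724 present during compound exposure; potency is the fitted concentration of half-maximal effect; % is set by controls: 0 for no effect and ±100 for the full control effect; nearly all actives have a fitted effect of over 65% in size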
#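 HTRF cAMP measurement after 30 min RT detection following 30 min, 37C compound treatment alongside […] (added as 300 uM solution) in G418-selected cells seeded at 2000/well and grown 16–24 h.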
# Six1-Eya2 blk: Six1/Eya2 interaction inhibition; Q15475+O00167; AlphaScreen GST-Six1/His-Eya2 binding, biochemical; hits give low values; control for the full effect not named in the record; activity change, % (concentration not given with the values); actives 0.56% (n = 360,000); AID 651725; in the data active = activity change below about -65%; inconclusive = about -30% to -65%; inactive = above about -30%; note: % is set by controls: 0 for no effect and ±100 for the full control effect
# Target sequence (O00167 whole entry, looked up): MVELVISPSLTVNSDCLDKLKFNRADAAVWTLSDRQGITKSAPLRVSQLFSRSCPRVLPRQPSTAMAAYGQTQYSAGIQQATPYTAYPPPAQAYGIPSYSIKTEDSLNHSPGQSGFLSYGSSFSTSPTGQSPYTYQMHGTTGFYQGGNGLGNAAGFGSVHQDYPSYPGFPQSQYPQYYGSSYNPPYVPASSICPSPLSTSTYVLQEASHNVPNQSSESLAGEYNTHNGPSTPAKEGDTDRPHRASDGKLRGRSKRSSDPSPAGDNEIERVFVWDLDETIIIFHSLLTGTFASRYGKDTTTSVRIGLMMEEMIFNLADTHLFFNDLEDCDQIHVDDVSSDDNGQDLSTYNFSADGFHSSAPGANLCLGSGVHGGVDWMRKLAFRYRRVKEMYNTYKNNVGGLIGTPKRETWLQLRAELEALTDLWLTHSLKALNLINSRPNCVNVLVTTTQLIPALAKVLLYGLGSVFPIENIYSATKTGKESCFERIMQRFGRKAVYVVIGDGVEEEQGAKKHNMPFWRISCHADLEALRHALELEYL
# Target sequence (Q15475 whole entry, looked up): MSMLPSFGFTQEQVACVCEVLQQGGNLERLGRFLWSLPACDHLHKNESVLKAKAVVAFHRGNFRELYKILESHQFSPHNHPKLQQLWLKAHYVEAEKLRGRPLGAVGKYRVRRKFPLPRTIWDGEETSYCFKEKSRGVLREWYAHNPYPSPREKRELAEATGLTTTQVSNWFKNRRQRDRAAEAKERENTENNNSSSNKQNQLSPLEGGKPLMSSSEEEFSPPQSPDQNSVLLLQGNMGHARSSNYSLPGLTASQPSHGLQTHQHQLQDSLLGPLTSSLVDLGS
#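 AlphaScreen with GST-Six1 and His-Eya2 (5X mix: 250 nM and 500 nM), glutathione donor and nickel acceptor beads; buffer 50 mM Tris pH 8.0, 300 mM NaCl, 1 mM TCEP; 1 h at 37 C in the dark.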
# gsp agonist: agonists of gsp mutant (McCune-Albright syndrome); gsp mutant cells, cAMP HTRF, 30 min; control for the full effect not named in the record; Potency, µM (series often up to 76.9 µM), without a hit: top-dose activation (cAMP increase), usual class: activators; actives 0.13% (n = 340,000); AID 624287; active = well fitted activation curve with a large enough effect; inconclusive = small, poorly fitted or top-dose-only effect, or another doubt; inactive = no such curve, though single readings can be large or run the other way; cell line not stated here;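 note: phosphodiesterase inhibitor Ro 20-1724 added with compounds to block cAMP breakdown; potency is the fitted concentration of half-maximal effect; nearly all actives have a fitted effect of over 60% in size; about a fifth of the inactives were tested at one dose only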
#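 Cells stably selected in G418 were plated at 2000/well, grown 16-24 hr, then given compounds in DMSO with the PDE inhibitor […] (300 uM solution added) for 30 min at 37C; cAMP was read by HTRF.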
# D2 potentiator: potentiates the human D2 dopamine receptor allosterically. P14416. DiscoveRx D2 beta-arrestin cells, luminescence, 90 min; 100% = 57 uM dopamine signal. potentiation, % (concentration not given with the values). actives 0.23% (n = 360,000). AID 624464; active = potentiation of 50% or more; inconclusive = 30% to 50%; inactive = 30% or less;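 note: compound concentration not given in the record; tested on top of an EC20 dose of dopamine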
#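 PathHunter D2 cells, attached overnight at 37 deg C, received compound in DMSO plus dopamine at EC20 (50 nM final) for 90 min at 37 deg C. Beta-arrestin recruitment was read as luminescence after 1 h with detection reagent at ambient temperature.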
# D2 agonist: activates the human D2 dopamine receptor; P14416; DiscoveRx PathHunter D2 beta-arrestin, luminescence, 90 min; 100% = 57 uM dopamine signal; activation, % (no concentration beside the values); actives 0.084% (n = 360,000); in the data active = activation above about 40%; inconclusive = about 15% to 40%; inactive = below about 15%; note: compound concentration not given in the record; the text of the record calls up to 30% inactive
#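 Agonist mode: compounds alone added to overnight-plated D2 PathHunter cells for 90 min at 37 C, with 57 uM final dopamine (EC100) defining full response. Beta-arrestin recruitment detected by chemiluminescent reagent, read after 1 h at ambient temperature.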
# CtBP-E1A blk: inhibitors of CtBP/E1A interaction; AlphaScreen GST-E1A/His-CtBP binding, 1536-well; hits give low values; control for the full effect not named in the record; activity change, % (no concentration beside the values); actives 0.49% (n = 340,000); AID 651724; in the data active means activity change below about -65%; inconclusive means about -30% to -65%; inactive means above about -30%; note: % is set by controls: 0 for no effect and ±100 for the full control effect; compound concentration not given in the record
#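 Steps: dispense buffer (Tris pH 8.0, NaCl 300 mM, TCEP 1 mM, BSA, Tween 20); add 5X protein mix (GST-E1A, His-CtBP, 125 nM each); pin 23 nL compound; 2 h at 37 °C, dark; add 5X beads (50 ug/mL); 1 h; read.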
# * marks the source's active call; other numbers are inactive results; ? = inconclusive; . = no result given; [ ] = another dose, or the depositor's remark.
SMILES,gsp antag,Six1-Eya2 blk,gsp agonist,D2 potentiator,D2 agonist,CtBP-E1A blk
COc1ccc(OC)c2c1C(=O)C(Cl)=C(Cl)C2=O,35.5µM*,-5.2,-68.7%[inhibitor],-11.6,-1.3,0.9
Cc1nn(CC(=O)NCCc2ccc(Cl)cc2)c(=O)c2cccn12,6.1%,-1.2,-5.2%,-16.1,-1.6,-1.4
COC(=O)c1cc(CNC(=O)c2ccc(N3CCCC3)c([N+](=O)[O-])c2)ccc1OC,-7.3%,-6.9,19.1%,-1.6,-0.2,0.0
O=C(Nc1ccc(OCCO)cc1)c1csc([C@@H]2C[C@H](O)[C@@H](CO)O2)n1,.,0.9,.,-1.7,-2.6,2.4
CCCCC1CCC(C(=O)OCC(=O)Nc2ccc(S(N)(=O)=O)cc2)CC1 (stereo not drawn),-14.0%,-0.1,9.1%,-1.7,3.7,-11.8
COc1ccc(NC(=S)N(Cc2ccc(C)cc2)Cc2ccccn2)cc1,-7.2%,4.9,9.3%[15.4 µM],2.9,-0.4,2.0
CN(CC(=O)Nc1ccccc1C(F)(F)F)C(=O)CC1OC(=O)c2ccccc21 (stereo not drawn),6.0%,3.2,?,-8.7,-4.2,-3.8
CN1CCC(NCCC(c2ccc(F)cc2)c2ccc(Cl)cc2)CC1 (stereo not drawn),11.0%,3.3,-1.9%[15.4 µM],-7.4,2.3,-6.0
CCCc1nnc(NS(=O)(=O)c2ccccc2)s1,-23.6%,28.0,2.3%[15.4 µM],-25.5,-4.7,0.0
CCOc1ccccc1C(=O)N[C@H](C(=O)Nc1ccc(OC)c(S(=O)(=O)N2CCOCC2)c1)C(C)C,-4.1%,-5.8,-8.9%[15.4 µM],-13.0,-3.7,-0.3
COc1cc(-c2nnc(-c3ccccc3)o2)cc(OC)c1OC,6.3%,-4.2,7.6%,1.2,-4.2,-2.4
CCN1CCN(C(=O)c2ccc(COc3cccc(Cl)c3)o2)CC1,-0.4%,1.4,15.8%[15.4 µM],-14.6,-0.8,14.1
Cc1ccccc1-c1nc(CS(=O)(=O)CC(=O)NCCN2CCOCC2)c(C)o1,4.6%,0.1,-1.0%,-2.4,-0.4,2.1
Cc1nc2ccc(C(=O)N(C)Cc3ccco3)cn2c1N(C)C(=O)CCc1ccccc1,.,0.9,.,-13.0,1.8,-4.3
COC(=O)Cc1ccc(NC(=O)c2ccc3c(c2)C(=O)N(CC2CCCO2)C3=O)cc1 (stereo not drawn),-13.8%,-1.6,-30.4%,15.4,-2.2,-0.1
CC(=O)c1ccc(NC(=O)c2cccs2)cc1,-2.0%,-0.7,-1.5%,2.2,-0.2,10.9
CN1/C(=C\C=C(C#N)C#N)C(C)(C)c2ccccc21,-10.4%,12.5,-4.9%,0.4,0.7,.
COc1cc2c(cc1OC)C(C)N(C(=O)Nc1ccccc1)CC2 (stereo not drawn),-2.0%,3.6,2.3%[15.4 µM],-2.4,-2.8,-1.8
COc1ccc2oc(=N)c(-c3nnc4n3CCCCC4)cc2c1,1.9%,-0.6,-114.1%[inhibitor],-1.2,0.5,1.7
CCCOc1cccc(C2C(C(=O)c3cccs3)=C(O)C(=O)N2CCN2CCOCC2)c1 (stereo not drawn),-9.8%,-2.5,-4.7%,-5.3,-1.5,1.1
O=C(CSc1nc2ccccc2c(=O)[nH]1)Nc1ccccc1N1CCOCC1,0.0%,0.0,5.6%[15.4 µM],-11.2,-4.4,2.3
Clc1nc(NC2CCCC2)nc(N2CCOCC2)n1,5.6%,0.9,7.6%[15.4 µM],-15.4,-0.8,5.7
O=C1C(=O)N(c2cccc(Cl)c2)C(c2ccccc2[N+](=O)[O-])/C1=C(\O)c1ccccc1 (stereo not drawn),?,-5.9,8.6%,-11.0,-6.0,-7.6
CC(NC(=O)CCCCCNC(=O)N1CCn2c1nc1ccccc12)c1ccccc1 (stereo not drawn),-0.4%,-6.6,-51.5%[inhibitor],-2.4,-2.8,-13.0
CCn1c(C)c(CS(=O)(=O)c2ccccc2)[nH]c1=O,13.9%,3.9,-4.3%,-4.8,2.9,-7.8

# Compound profiles, from the list above. Values in the order: gsp antag	Six1-Eya2 blk	gsp agonist	D2 potentiator	D2 agonist	CtBP-E1A blk
# CN1CCC(NCCC(c2ccc(F)cc2)c2ccc(Cl)cc2)CC1 (stereo not drawn) is listed as 11.0%	3.3	-1.9%[15.4 µM]	-7.4	2.3	-6.0
# CC(NC(=O)CCCCCNC(=O)N1CCn2c1nc1ccccc12)c1ccccc1 (stereo not drawn) is listed as -0.4%	-6.6	-51.5%[inhibitor]	-2.4	-2.8	-13.0
# COc1cc2c(cc1OC)C(C)N(C(=O)Nc1ccccc1)CC2 (stereo not drawn) is listed as -2.0%	3.6	2.3%[15.4 µM]	-2.4	-2.8	-1.8
# COc1ccc2oc(=N)c(-c3nnc4n3CCCCC4)cc2c1 is listed as 1.9%	-0.6	-114.1%[inhibitor]	-1.2	0.5	1.7

# More entries follow.
SMILES,gsp antag,Six1-Eya2 blk,gsp agonist,D2 potentiator,D2 agonist,CtBP-E1A blk
O=C(Nc1cc(Cl)ccc1N1CCOCC1)C1CC1,7.0%,1.6,3.2%[15.4 µM],8.2,4.4,3.5
CC(C)CCn1c(CN2CCN(c3cccc(Cl)c3)CC2)nc2c1c(=O)n(C)c(=O)n2C,-7.1%,2.6,20.7%,-9.6,1.9,-2.3
CCn1ncc(C2=NOC(C(=O)Nc3ccc4c(c3)OCO4)C2)c1C (stereo not drawn),-1.7%,0.2,23.3%,4.1,3.8,1.8
CCC(c1nnc(SCC(=O)NC2CCCCC2)n1Cc1ccccc1)N(C)C (stereo not drawn),-3.4%,2.8,-17.5%[15.4 µM],-13.4,-2.2,5.1
Cc1ccc(N2C(=O)c3ccccc3C2C(=O)c2ccc(O)cc2O)cc1 (stereo not drawn),?,?,-0.9%,-6.0,12.6,-0.3
Cc1nn(-c2ccc(F)cc2)c(C)c1CN1CCN(Cc2ccccc2)C(CCO)C1 (stereo not drawn),-1.7%,-2.9,-12.0%,-11.8,-0.3,7.2
O=C(Nc1ccc(Br)cc1F)c1ccc2c(c1)N(Cc1ccccc1)C(=O)CS2=O (stereo not drawn),?,-15.1,-13.7%,-4.6,2.5,-8.8
COc1ccc(OC)c(NC(=O)CSc2ncnc3c2cnn3-c2ccccc2Cl)c1,2µM*,-25.9,-18.8%,-8.4,-0.1,-24.2
O=S(=O)(Cc1ccccc1)N1CCN(c2ncccn2)CC1,14.2%,1.5,3.4%,-3.4,-3.6,5.0
COc1ccc(OC)c(NS(=O)(=O)c2cccc3cccnc23)c1,2.0%,-16.7,4.0%,4.5,2.0,-27.0
O=S(=O)(c1cccc(C(F)(F)F)c1)N1CCC(c2nc3ccccc3[nH]2)CC1,0.0%,-1.5,13.6%,-6.5,0.7,13.8
COc1ccccc1OCCNC(=O)c1ccccc1C,10.3%,-3.4,-4.2%,1.6,-0.5,-23.0
Cn1nc(C(=O)N2CCN(S(=O)(=O)/C=C/c3ccccc3)CC2)c2ccccc2c1=O,-11.3%,4.3,-8.0%[15.4 µM],-3.9,-7.2,-3.2
O=C(Nc1nncs1)c1cc(-c2ccco2)nc2ccccc12,-26.8%,?,17.1%[15.4 µM],0.6,-2.2,-5.0
O=C(Nc1cccc(C(F)(F)F)c1)c1csc(-c2ccncc2)n1,-3.2%,-16.9,-6.9%[15.4 µM],-8.1,-0.2,-5.6
Cc1ccc(N2C(=O)C3C4C=CC(CNC(=S)N5CCN(c6ccccc6)CC5)(O4)C3C2=O)cc1 (stereo not drawn),-3.3%,1.8,19.0%,-9.9,7.2,.
O=C(COC(=O)CN1C(=O)c2ccccc2C1=O)Nc1cccc(F)c1,-18.2%,-3.0,-19.1%,-0.3,0.6,5.8
Cc1cccc(N(CC(=O)NCCC2=CCCCC2)S(C)(=O)=O)c1C,7.1%,2.0,5.6%,-6.2,-0.6,1.3
COCCSc1ccccc1C(=O)Nc1ccc2c(c1)OCO2,16.9%,-1.1,-25.0%,-2.9,-4.1,4.1
COc1ccccc1OCCNc1nc2c(c(=O)n(C)c(=O)n2C)n1C,-1.8%,-15.5,-2.2%,10.5,-1.9,-11.2
Cc1ccc(N2C(=O)CC(NCc3ccc4c(c3)OCO4)C2=O)cc1Cl (stereo not drawn),-7.4%,-3.3,15.0%,-15.4,0.5,-10.3
COc1ccccc1C(=O)Nc1nsc(-c2ccccc2)n1,-11.9%,0.8,-2.3%,-4.9,-6.4,0.0
COc1ccc(Oc2ccc(S(=O)(=O)N3CCCCC3)cc2S(=O)(=O)N2CCCCC2)cc1,-5.3%,-1.7,13.3%[15.4 µM],-6.4,-0.7,4.0
CC(=O)Nc1ccc(CN2CCCC(CO)(Cc3ccccc3C)C2)cc1 (stereo not drawn),-6.5%,-2.9,8.2%[15.4 µM],-39.2,-6.6,2.5
O=C1/C(=C/c2cccs2)SC(=S)N1N1CCOCC1,-4.7%,-11.1,2.7%,-4.3,-4.1,-13.7

# Remaining list, next part:
SMILES,gsp antag,Six1-Eya2 blk,gsp agonist,D2 potentiator,D2 agonist,CtBP-E1A blk
CN(C)S(=O)(=O)c1ccc(C(=O)OCCCN=C2NS(=O)(=O)c3ccccc32)cc1,-2.2%,4.3,23.4%,-8.1,-2.9,1.8
Cc1onc(-c2c(F)cccc2Cl)c1C(=O)Nc1cccc(S(=O)(=O)NC2=NCCC2)c1,5.2%,5.8,2.5%[15.4 µM],-16.1,-4.9,0.7
CCn1c(CC(=O)Nc2ccccc2OC)nnc1SCC(=O)Nc1ccccc1F,-5.8%,4.3,-21.9%,-0.9,0.6,0.9
CCOc1ccc(C2c3c(oc4ccccc4c3=O)C(=O)N2CCCN2CCOCC2)cc1OCC (stereo not drawn),-1.8%,-3.6,0.0%,1.0,-0.6,4.1
O=C(c1ccccc1)c1nc2c(n1O)CCCCC2,8.0%,-5.0,-29.7%,-8.1,-3.6,-2.3
CC(NC(=O)CN(c1ccc(Cl)cc1)S(C)(=O)=O)c1ccccc1 (stereo not drawn),7.4%,1.9,-7.9%[15.4 µM],2.2,0.7,13.0
CCCC(=O)Nc1nnc(-c2ccc3c(c2)OCCO3)o1,-5.6%,-5.7,16.1%[15.4 µM],-3.1,-2.4,-5.4
CCC(=O)c1ccc(OCC(O)CNC(C)c2ccccc2)cc1 (stereo not drawn),9.7%,2.4,-20.9%,-14.2,-0.2,9.1
N#Cc1c(Nc2ccc(F)cc2)sc(C(=O)c2ccccc2)c1N,-19.0%,-0.5,-35.3%[inhibitor],-6.1,-4.6,.
Cn1c(SCC(=O)NNC(=O)c2ccc(Cl)cc2)nnc1-c1cccnc1,-1.1%,-5.6,-129.1%[inhibitor],-2.8,-4.5,.
CCCN1C(=O)/C(=C/c2c(N3CCNC(=O)C3CC(=O)OCC)nc3c(C)cccn3c2=O)SC1=S (stereo not drawn),?,-16.8,13.5%[15.4 µM],4.0,-1.3,5.7
Fc1ccccc1OCCCCCN1CCCC1,5.8%,1.0,6.2%,-21.1,0.2,5.9
CCOC(=O)c1ccc(NC(=S)N2CCC(C(N)=O)(N3CCCCC3)CC2)cc1,-3.4%,-9.7,-12.1%[15.4 µM],4.1,-2.4,0.0
